Source: PubChem BioAssay
Resorufin autofl: qHTS Assay for Spectroscopic Profiling in Resorufin Spectral Region; Compound fluorescence, resorufin region 547/598 nm, buffer; stronger effect = higher value; max dye-equivalent concentration, M; hit rate 0.04% among 59,000; AID 588, 2007; active = above 10 nM dye equivalent; inconclusive = 1 to 10 nM; inactive = 1 nM or less; a few of its hits are not listed in these tables; also: highest value over a series up to 38 µM
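Dye-equivalent concentration values derive from comparing each well's 547/598 nm fluorescence against resorufin standards included on every plate. Incubation was 15 min at room temperature in 100 mM Tris, pH 8.0.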
A647 fluor: qHTS Assay for Spectroscopic Profiling in A647 Spectral Region; max dye-equivalent concentration, M; 59,000 tested, under 10 active; AID 592, 2007; Compound fluorescence, A647 channel (570/671 nm), Tris buffer; active means above 1 µM dye equivalent; inconclusive means 0.1 to 1 µM; inactive means 0.1 µM or less;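 also: values scaled relative to a standard on each plate; highest value over a series up to 38 µM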
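Buffer was dispensed, compounds and Alexa 647 standards were pin-transferred, and plates sat 15 min at room temperature. Intensity at 570/671 nm was then converted to dye-equivalent concentration using the plate's A647 standard curve.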
AID923: qHTS Assay for Allosteric/Competitive Inhibitors of Caspase-1: Spectroscopic Profiling in AFC Spectral Region; AID 923, 2007; hit rate 1.1% among 75,000; Potency, µM (titrated, usually from 57.5 µM), inactives show at the top dose fluorescence increase, actives largely listed as activators; compound fluorescence, AFC spectral region (405/520 nm); almost no hit is shown here; active = well fitted activation curve with a large enough effect; inconclusive = small, poorly fitted or top-dose-only effect;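 also: potency is read from the fitted curve at half-maximal effect; 0% is about no effect; scaled to a free AFC standard on each plate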
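Titrations up to 57 uM read every 20 sec for 3 min (405/520 nm) with 50 nM caspase 1 and 5 uM Ac-WEHD-AFC, pH 7.5 HEPES buffer. Fluorescence-vs-time intercept gave baseline, scaled against on-plate AFC standard.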
A488 autofl: qHTS Assay for Spectroscopic Profiling in A488 Spectral Region; compound autofluorescence, A488 spectral region, dye equivalency; stronger effect = higher value; max dye equivalency, M; hit rate 0.1% among 59,000; AID 591, 2007; active = above 10 nM dye equivalent; inconclusive = 1 to 10 nM; inactive = 1 nM or less; about half of its hits are not listed in these tables;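 also: highest value over a series up to 38 µM; compound alone in buffer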
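Compounds pin-transferred into 100 mM Tris buffer, pH 8.0, incubated 15 min at room temperature, then imaged with 480 nm excitation/540 nm emission filters. Fluorescence converted to Alexa 488 dye-equivalent concentration via an on-plate six-point A488 standard curve.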
TSHR agonist: qHTS Assay for Agonists of the Thyroid Stimulating Hormone Receptor | HEK293-CNG-TSHR cells (CNG channel as cAMP sensor), membrane potential dye, cAMP | Potency, µM (highest dose often 57.1 µM), without a hit: top-dose activation, most hits filed as activators | hit rate 0.48% among 73,000; active = well fitted activation curve of enough size with the parental cells flat; inconclusive = any curve in the parental cells; inactive = parental cells flat and receptor cells flat or falling; also: potency is read from the fitted curve at half-maximal effect; % of control where 0% means no effect; weak receptor curves with flat parental cells got no call and are not listed
Target sequence (P16473 whole entry, looked up): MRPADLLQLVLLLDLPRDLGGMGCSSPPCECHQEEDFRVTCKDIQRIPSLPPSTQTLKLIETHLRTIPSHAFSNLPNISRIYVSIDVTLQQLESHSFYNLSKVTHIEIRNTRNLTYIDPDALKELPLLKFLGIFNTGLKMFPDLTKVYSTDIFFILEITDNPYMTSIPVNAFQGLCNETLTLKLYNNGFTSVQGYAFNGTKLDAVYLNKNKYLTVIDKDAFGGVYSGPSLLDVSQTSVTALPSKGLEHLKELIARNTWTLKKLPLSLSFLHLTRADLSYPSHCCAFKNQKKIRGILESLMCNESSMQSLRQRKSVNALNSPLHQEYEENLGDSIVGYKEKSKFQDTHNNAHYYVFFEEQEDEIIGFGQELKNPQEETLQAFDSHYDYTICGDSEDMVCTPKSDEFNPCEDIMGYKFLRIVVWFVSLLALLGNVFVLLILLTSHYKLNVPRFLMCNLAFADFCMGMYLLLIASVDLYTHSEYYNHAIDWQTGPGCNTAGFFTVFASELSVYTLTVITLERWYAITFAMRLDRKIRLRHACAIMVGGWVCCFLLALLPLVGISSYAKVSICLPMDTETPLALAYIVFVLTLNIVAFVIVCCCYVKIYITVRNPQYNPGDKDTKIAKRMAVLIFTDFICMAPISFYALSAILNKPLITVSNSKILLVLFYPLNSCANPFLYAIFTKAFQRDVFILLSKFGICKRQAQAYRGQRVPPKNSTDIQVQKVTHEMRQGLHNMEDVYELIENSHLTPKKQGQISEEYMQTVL
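HEK 293 cells stably expressing TSHR and a cAMP-gated CNG channel; parental CNG-only cells as counterscreen. Cells preloaded 60 min with membrane potential dye plus 100 uM RO 20-1724, then compound 30 min; fluorescence read at 590 nm.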
* marks the source's active call; other numbers are inactive results; i = inactive; ? = inconclusive; nt = not tested or not shown; & = joins results of further samples; [ ] = dose if it differs, or a comment.

molecule,Resorufin autofl,A647 fluor,AID923,A488 autofl,TSHR agonist
CC(=O)C1=C(O)C(=O)N(c2cc(C(C)(C)C)on2)C1c1ccc(C(C)C)cc1 (centres undefined),i,1e-09,0.8%,i,0%
COc1cccc(CNS(=O)(=O)c2cn(C)cn2)c1,i,9.3e-09,-1.5%,i,4%
NC(N)=N/N=C\c1ccc(O)c(C(=O)O)c1,i,1e-09,1.4%[11.5 µM],i,3%[11.4 µM]
Cc1ccc(C2C3=C(CCCC3=O)Nc3[nH]c(=S)[nH]c(=O)c32)cc1 (centres undefined),i,2.8e-08,2.5%,i,-5%
O=C(CN1C(=O)NC2(CCc3ccccc32)C1=O)Nc1cc(C(F)(F)F)ccc1N1CCOCC1 (centres undefined),i,1.7e-09,-6.4%,i,-10%
CCOC(=O)COc1ccc2c(c1)c(C(=O)OCC)c(C)n2CC,i,1e-09,-0.9%,i,23%
O=C(Nc1cnccn1)c1cccnc1,i,2.8e-08,-1.2%,i,-11%
COc1cccc(N(CC(=O)Nc2cccc(C(C)=O)c2)S(C)(=O)=O)c1,nt,nt,1.9%,nt,3%
CCCCOc1ccccc1NC(=O)C=C(C)C,i,1.6e-09,-2.5%,i,23%
CC[C@H](CO)NCCN[C@@H](CC)CO,i,1.4e-08,0.7%[25.7 µM],i,-11%[25.6 µM]
O=C(CCC(=O)c1ccc[nH]1)c1ccc(Cl)cc1,i,1.2e-08,-3.0%,i,-5%
CCOC(=O)C(C)Sc1nnc(-c2ccccc2O)n1Cc1ccccc1 (centres undefined),i,1e-08,-2.0%,i,?
CCc1c(C)c2cc(Cl)c(O)c(CN3CCCCC3)c2oc1=O,i,1e-09,nt,i,nt
O=C(CC1CCS(=O)(=O)C1)NC1CCCCC1 (centres undefined),i,5.6e-09,-0.5%,i,0%
Cc1cc2cc(CNC(=O)c3ccc4c(c3)OCO4)ccc2[nH]1,i,1.1e-08,3.7%,i,-8%
O=c1cc(CN2CCN(CCO)CC2)c2cc3c(cc2o1)CCC3,i,3.9e-09,-2.7%,i,?
Clc1ccc(OCCn2ccnc2)c(Cl)c1,i,1e-09,-0.4%,i,4%
COC(=O)NC(Nc1sc2c(c1C(N)=O)CCCC2)(C(=O)OC)C(F)(F)F (centres undefined),i,4e-08,nt,i,nt
CC1(C)C2CCC13CS(=O)(=O)N[C@@H]3C2 (some centres undefined),i,1e-09,1.6%,i,5%
c1ccc(Cn2nnc3c(NCCN4CCOCC4)ncnc32)cc1,i,1.8e-08,1.6%,i,2%
O=S(=O)(c1cccc2cccnc12)N(CCO)CCO,nt,nt,2.4%,nt,4%
Cc1ccc(S(=O)(=O)N2CCCC(C(=O)NC3=NCCS3)C2)cc1 (centres undefined),i,1.8e-08,-0.8%,i,2%
CCNc1ncc2ncc(=O)n(Cc3cccc(OC)c3)c2n1,i,1.4e-08,11%,i,?
COc1cc(C(=O)N2CCN(C(=O)c3ccco3)CC2)cc(OC)c1OC,nt,nt,0.0%,nt,-1%
CCCCOC(=O)c1ccc(NS(=O)(=O)c2cc(-c3nnnn3CC)ccc2OC)cc1,nt,nt,-1.2%,nt,-13%
O=C(CN1C(=O)CSC1=O)N1CCc2ccccc2C1,i,2.9e-09,0.2%,i,3%
O=C(Nc1ccc(S(=O)(=O)N2CCCCC2)cc1)c1cnccn1,i,2e-08,0.1%,i,-3%[11.4 µM]
CCn1c(SCC(=O)NCc2ccco2)nc2c1c(=O)n(C)c(=O)n2C,i,2.6e-08,-0.8%,i,4%[11.4 µM]
Nc1nonc1OCCc1ccccc1,i,1.2e-08,nt,i,nt
CCOc1cc(C2C(C(=O)c3ccc(C)o3)=C(O)C(=O)N2CCc2ccccc2)ccc1O (centres undefined),i,2.6e-09,-1.9%,i,0%
O=C(Cn1ccc2ccccc2c1=O)NCCC(=O)N1CCN(C(=O)c2ccco2)CC1,i,3.3e-08,-0.3%,i,8%
NC(=O)c1ccccc1NS(=O)(=O)Cc1ccc(Cl)cc1,i,2.2e-09,-1.7%,i,7%
O=C(CSc1nc2cc(Cl)ccc2o1)N1CCOCC1,i,7.4e-09,-1.8%,i,2%
CCOCCOC(=O)C1=C(C)N(C)C(=O)NC1c1cc(Cl)c(O)c(OC)c1 (centres undefined),i,1.1e-08,0.2%,i,14%
CCOC(=O)c1ccc(NC(=O)CSc2nnc(-c3cccs3)n2CC)cc1,i,2.4e-08,2.4%,i,13%
O=c1oc2c3c4c(cc2c(C(F)(F)F)c1CCN1CCOCC1)CCCN4CCC3,i,1e-09,nt,?,nt
CCSc1nnc(NC(NC(=O)c2ccco2)(C(F)(F)F)C(F)(F)F)s1,i,1e-09,nt,i,nt
CC1(C)CC(=O)c2cc(C(=O)NCc3ccco3)c(=O)n(-c3ccccc3)c2C1,i,2.4e-08,1.1%,i,18%
COCCOC(=O)c1c(C)oc2ccc(O)c(CN3CCC(C)CC3)c12,?,4.8e-08,-1.2%,i,?
CCn1cc(C(=O)NCC(=O)OC)c2cc(OC)c(OC)cc2c1=O,i,1.7e-08,-0.7%,i,9%
Cc1ccccc1OCC(O)Cn1c(SC(C)C)nc2c1c(=O)[nH]c(=O)n2C (centres undefined),i,6.1e-09,-1.5%,i,6%
CCCCC1CC1C(=O)Nc1ncc2c(n1)CC(C)(C)CC2=O (centres undefined),i,1e-09,2.8%,i,?
O=C1c2cccnc2C(=O)N1c1cccc(-c2nc3ccccc3o2)c1,i,2.9e-08,-0.6%,i,-15%
Cc1noc(C)c1CSCC(=O)OCC(=O)Nc1sccc1C#N,i,6.2e-09,0.6%,i,7%
O=C(CS(=O)(=O)c1ccccc1)c1ccc2c(c1)OCCO2,i,2.1e-09,1.1%,i,nt
CCC1CCCCN1S(=O)(=O)c1ccc2c(c1)CCN2C(=O)C1CCC1 (centres undefined),i,1.9e-08,-0.5%,i,?
Cc1ccc(-n2[nH]c(C)c(C=Nc3cc(C)ccn3)c2=O)cc1,i,1.4e-09,nt,i,nt
CN(C)C(=O)N1CCN(C(=O)c2ccco2)CC1,nt,nt,1.6%,nt,-7%
O=C(Nc1ccc(SC(F)F)cc1)c1ccc2nccnc2c1,i,5.4e-09,0.5%,i,0%
O=C(CCc1nc2ccccc2[nH]1)Nc1ccc2c(c1)OCCO2,nt,nt,0.3%,nt,-6%

Two entries from above, with two lines to a compound:
Fields – Resorufin autofl, A647 fluor, AID923, A488 autofl, TSHR agonist
Cc1noc(C)c1CSCC(=O)OCC(=O)Nc1sccc1C#N
→ i, 6.2e-09, 0.6%, i, 7%
Cc1cc2cc(CNC(=O)c3ccc4c(c3)OCO4)ccc2[nH]1
→ i, 1.1e-08, 3.7%, i, -8%

3 records picked at random from the list so far:
molecule,Resorufin autofl,A647 fluor,AID923,A488 autofl,TSHR agonist
Cc1ccccc1OCC(O)Cn1c(SC(C)C)nc2c1c(=O)[nH]c(=O)n2C (centres undefined),i,6.1e-09,-1.5%,i,6%
CN(C)C(=O)N1CCN(C(=O)c2ccco2)CC1,nt,nt,1.6%,nt,-7%
CCC1CCCCN1S(=O)(=O)c1ccc2c(c1)CCN2C(=O)C1CCC1 (centres undefined),i,1.9e-08,-0.5%,i,?

(listing goes on)
molecule,Resorufin autofl,A647 fluor,AID923,A488 autofl,TSHR agonist
CCOc1ccc(CCNC(=O)CN(C)S(=O)(=O)c2cccc3nsnc23)cc1OCC,i,1e-09,0.9%,i,-2%
CC1(C)C2CCC1(CS(=O)(=O)NCc1ccc(C(=O)O)cc1)C(=O)C2 (centres undefined),i,3.2e-08,-3.4%,i,-2%
CCCn1c(SCC(=O)Nc2nnc(C(C)C)s2)nc2c1c(=O)n(C)c(=O)n2C,i,1.1e-08,0.0%,i,13%
CCN(CC)CCCN1C(=O)C(O)=C(C(=O)c2ccc(C)o2)C1c1ccco1 (centres undefined),i,4.2e-09,2.6%,i,?
O=C(O)C1CC(=O)N(CCOc2ccccc2)C1 (centres undefined),nt,nt,-0.9%,nt,1%
COC(=O)CN(c1ccc(C(C)C)cc1)S(=O)(=O)c1c(C)[nH]c(=O)[nH]c1=O,nt,nt,3.4%,nt,5%
Cc1cccc(C(=O)Nc2ccc(O)cc2)c1,i,1e-09,-0.2%,i,2%
CCN(CC)C(=O)C1CCCN(Cc2ccccc2C(F)(F)F)C1 (centres undefined),nt,nt,-0.6%,nt,22%[11.4 µM]
COc1ccc(Nc2nc(N3CCCC3)nc3ccccc23)c(OC)c1,i,2.2e-08,3.4%,i,?
CCN(CC)S(=O)(=O)c1ccc(C(=O)NCC(c2cccs2)N2CCOCC2)cc1 (centres undefined),i,1.5e-08,1.2%,i,12%[11.4 µM]
Nc1ccc(S(=O)(=O)Nc2ccnn2-c2ccccc2)cc1,i,5.1e-09&6.9e-09,-2.8%,i,?
Cc1nc2cc(-c3cccc(Cl)c3)nn2c(N2CCN(C(=O)c3ccco3)CC2)c1C,i,4.5e-09,0.9%,i,8%
CCOC(=O)c1[nH]c(C)c(CN(CCc2ccccc2)C(=O)CCC(=O)O)c1C,i,1.3e-09,-0.8%,i,0%[11.4 µM]
O=C(NCc1ccc2c(c1)OCO2)c1cc2ncc(Br)cn2n1,i,1.9e-08,-1.6%,i,9%
Cc1nc(N2CCOCC2)c2nc(-c3ccccc3)n(CCN(C)C)c2n1,nt,nt,-0.8%,nt,5%
Cc1noc(C)c1-c1ccc2ncnc(NCc3ccccc3)c2c1,i,1e-09,-1.6%,i,nt
COc1ccc(-c2nnc(SCc3cccc(C#N)c3)o2)cc1,i,2.6e-08,-0.3%,i,nt
Cn1c(=O)c2c(nc(NCCO)n2C)n(C)c1=O,i,1.1e-08,-1.5%,i,4%
CN1CCN(c2ccc(NC(=O)c3ccc4c(c3)OCO4)cc2)CC1,i,1e-09,0.7%,i,-8%
CCc1c(C)nc(SCCOc2ccc(OC)cc2)[nH]c1=O,nt,nt,-0.9%,nt,38%
Fc1ccc(-c2nnc(-c3ccc(Cl)cc3Cl)o2)cc1,nt,nt,1.6%,nt,14%
COCCn1c(=S)[nH]c2cc(C(=O)NCC3CCCO3)ccc2c1=O (centres undefined),i,1e-09,-0.1%,i,-5%
CCC(C)C(NC(=O)c1ccccc1NC(=O)c1ccco1)C(=O)NC1CCCCC1 (centres undefined),nt,nt,-0.1%,nt,?
C=CCn1c(Cc2ccc(OC)cc2)nnc1SCc1nc2ccccc2c(=O)[nH]1,i,5.9e-09,-0.1%,i,5%
O=C(Nc1cccc(Oc2c(F)c(F)c(F)c(F)c2F)c1)N1C[C@@H]2C[C@@H](C1)c1cccc(=O)n1C2,i,1e-09,-1.4%,i,nt
COCCNC(=O)c1cn(C)c2ccc(S(=O)(=O)N(C)C3CCCCC3)cc2c1=O,nt,nt,-2.0%,nt,4%
COc1ccc(OC)c(S(=O)(=O)n2nc(-c3ccccc3)cc2N)c1,nt,nt,1.4%,nt,2%
CN1CCN(c2nc(-c3ccc(N(C)C)cc3)nc3ccccc23)CC1,i,1.9e-08,0.4%,i,?
CCOC(=O)c1ccccc1NC(=O)c1ccc2c(=O)n3c(nc2c1)CCCCC3,nt,nt,2.6%,nt,1%
O=C(O)CCCCCNC(=O)CCn1nnc2ccccc2c1=O,i,1e-09,-2.7%,i,0%

Some of the compounds tested. The share of hits here may be higher or lower than overall.
